Screening results (PubChem BioAssay)
Tgondii IFNg: inhibitors of Toxoplasma gondii growth with IFN-gamma; Toxoplasma gondii growth in IFN-gamma-treated host cells; stronger effect = lower value; reference of the scale not given here; AID 1259416; 69,000 compounds, 3.8% hits; activity change, negative = inhibition, %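 (about 20 µM by stock and volumes)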;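 active means below -70%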;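 further: host cells are HeLa cells infected with Toxoplasma gondii; parasite growth read as luciferase light; one replicate is shown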
* = called active by the depositor; i = inactive; & = joins results of further samples; ! = repeats disagree. The list is partial; count on the stated rates, not on these rows.

item	SMILES	Tgondii IFNg
1	CCO[C@@H]1CCN(C(=O)C(C)C)[C@@H]2CCO[C@H]21	82
2	Cc1ccccc1-c1cccc(CC2(C(=O)N(C)C)CCN(C(=O)CC3C=CCC3)CC2)c1 (stereo not given)	3
3	O=C(Cc1ccccn1)N1CC2(C1)[C@@H](c1ccccc1)[C@H](CO)N2C(=O)c1ccncc1	3
4	CCc1ccc(NC(=O)C2CC(=O)N(CCc3c[nH]c4ccc(OC)cc34)C2)cc1 (stereo not given)	22
5	COc1ccc(CC(=O)NCCc2sc(-c3ccc(F)cc3)nc2C)cc1	-51
6	CC(C)(C)c1cc(C(F)(F)F)nc(SCCCNC(=O)CCc2ccccc2)n1	-74*
7	Cc1ccc(C(=O)N2CCCC2c2nn(C)cc2-c2cc(C)no2)cn1 (stereo not given)	-2
8	CCOC1C2CCC1N(C(=O)COc1ccccc1)CCO2 (stereo not given)	-3
9	CCc1nnc(NC(=O)CSc2ncc(-c3ccccc3)n2CC2CCCO2)s1 (stereo not given)	8
10	Clc1nc2ccccc2c2[nH]c3ccccc3c12	-95*
11	C[C@@H]1CN([C@H](C)CO)C(=O)CCCn2cc(nn2)CO[C@H]1CN(C)C(=O)c1ccc(N2CCN(C)CC2)cc1	113
12	CN(C)Cc1nn(C)c2c1CN(c1ncccn1)C2	-4
13	CC(C)c1noc(-c2cc(=O)n(CC(=O)Nc3ccc(Cl)cc3)c3ccccc23)n1	50
14	Cc1ccc(C2(O)CCN(c3ncccn3)C2)cc1 (stereo not given)	72
15	CCCn1c(N2CCN(CC(=O)Nc3ccc(Cl)cc3)CC2)nc2ccccc21	-5
16	Cc1ccc(NC(=O)NCC(c2cccnc2)c2c[nH]c3ccccc23)cc1F (stereo not given)	41
17	CCOCc1cnc2n1CCN(C(=O)c1cnc(C)cn1)C2C (stereo not given)	-69
18	COc1ccc(-c2nc(N3CCN(c4ccc(C)cc4C)CC3)c3ccccc3n2)cc1	49
19	CCCS(=O)(=O)NC1CCc2c(ccc(=O)n2CC2CC2)C1 (stereo not given)	-16
20	C=C(C)Cc1c(C)nc(-c2ccc(Cl)cc2)nc1OC(=S)N(CC)CC	-98*
21	CSc1ccc(-c2noc(-c3c(O)c4ccccc4n(C)c3=O)n2)cc1	77
22	COc1ccccc1/C=C/c1nn2c(COc3ccc(F)cc3)nnc2s1	-91*
23	Cc1cccc(-c2noc(CN(C)C(=O)c3ccc4nc(C)[nH]c4c3)n2)c1	26
24	C=CCNc1ccccc1C(=O)N1CCOCC1CC(=O)O (stereo not given)	2
25	Cc1nc(OCC(=O)Nc2cc(Cl)ccc2Cl)c2ccccc2n1	-10

Single values from the results shown:
Reading of cpd 2 in Tgondii IFNg: 3
Reading of cpd 13 in Tgondii IFNg: 50
Reading of cpd 6 in Tgondii IFNg: -74*
Reading of cpd 23 in Tgondii IFNg: 26
Reading of cpd 14 in Tgondii IFNg: 72

Continued:
item	SMILES	Tgondii IFNg
26	O=C(Cn1nc2n(c1=O)-c1ccccc1C1=NCCCN12)NCc1ccccc1	-35
27	C=CCN(Cc1ccccn1)C(=O)c1cccnc1	3
28	NC(=O)c1ccc(C(F)(F)F)nc1N1C[C@H]2C[C@H](O)[C@@H](O)C[C@H]2C1	4
29	COCCCNC(=O)c1ccccc1C(=O)Nc1cc(C(F)(F)F)cc(C(F)(F)F)c1	37
30	CCc1nc(C)c(C(=O)N2CCCC(c3[nH]ncc3-c3ccc(C)cc3)C2)o1 (stereo not given)	-7
31	CC1CCCN(CCNc2nccc(C3CCCC3)n2)C1 (stereo not given)	-6
32	CC[C@@H]1C/C=C\C[C@@H](c2ccccc2)NC(=O)CCC(=O)N1	11
33	Cc1nc(C(Cc2ccsc2)NC(=O)c2c(-c3cccnc3)noc2C)sc1C (stereo not given)	8
34	Cc1noc(C)c1S(=O)(=O)N(C)C[C@H]1OCCCC[C@H](C)Oc2ccc(N(C)C)cc2C(=O)N([C@H](C)CO)C[C@@H]1C	i
35	C=CCNc1ccccc1C(=O)N(C)Cc1ccc(CC)cn1	12
36	CC(C)C(=O)Nc1ccc2c3c(cccc13)CC2	-9
37	CCOC(=O)c1cnn2c1nc(N1CC(C)CC(C)C1)c1ccccc12 (stereo not given)	-67
38	CN1C(=O)c2cc(NC(=O)c3cccc(F)c3)ccc2OC[C@H]2O[C@@H](CC(=O)NCC3CCCCC3)CC[C@H]21	-77*!
39	Cc1ccc(S(=O)(=O)Nc2ccc3c(c2)C(=O)N([C@@H](C)CO)C[C@H](C)[C@H](CN(C)S(=O)(=O)c2cccs2)OCCCC[C@@H](C)O3)cc1	-99*
40	N#CC(=C(/N)Sc1ccccc1N)/C(C#N)=C(\N)Sc1ccccc1N	30
41	Clc1ccc(C2(c3ccc(-c4cn[nH]c4)cc3)CCNCC2)cc1	-72*
42	Cc1cccc(N2CCC3(CC2)CN(c2ncccn2)CCO3)n1	-13
43	Cc1cc(C(=O)NC(Cn2ccnc2)C(C)(C)C)nc(N2CCCCC2)n1 (stereo not given)	-32
44	COCCN1C(=O)CCc2cc(NC(=O)c3cccc(C#N)c3)ccc21	66
45	Cc1cc(-c2cc(N)c(=O)n(CC(=O)NCCc3c[nH]c4ccccc34)n2)c(C)o1	57
46	CCCC(=O)Nc1ccc2c(c1)C(=O)N(C)C[C@H](OC)[C@@H](C)CN(C(=O)c1ccccn1)[C@@H](C)CO2	87
47	COc1ncccc1-c1cc(=O)[nH]c(NCC(C)(C)CN(C)C)n1	-14
48	O=C(Nc1ccc(F)cc1)Nc1ccc(-c2nc(-c3cccc(Br)c3)co2)cc1	-14
49	C[C@@H]1CCCCO[C@@H](CN(C)Cc2ccc3c(c2)OCO3)[C@@H](C)CN([C@H](C)CO)C(=O)c2cc(NS(=O)(=O)c3cn(C)cn3)ccc2O1	15
50	COCCN(C(=O)c1csnn1)C(C(=O)NC1CCCCC1)c1ccccc1 (stereo not given)	-22

Quoted at random: four compounds from above
item	SMILES	Tgondii IFNg
46	CCCC(=O)Nc1ccc2c(c1)C(=O)N(C)C[C@H](OC)[C@@H](C)CN(C(=O)c1ccccn1)[C@@H](C)CO2	87
40	N#CC(=C(/N)Sc1ccccc1N)/C(C#N)=C(\N)Sc1ccccc1N	30
35	C=CCNc1ccccc1C(=O)N(C)Cc1ccc(CC)cn1	12
50	COCCN(C(=O)c1csnn1)C(C(=O)NC1CCCCC1)c1ccccc1 (stereo not given)	-22

Following part
item	SMILES	Tgondii IFNg
51	Cc1cc(C)nc(CCNC(=O)CCNC(=O)c2ccc(F)cc2)n1	2
52	N#C[C@@H]1[C@@H](c2ccccc2C2=CCCCC2)[C@H](CO)N1C(=O)CN1CCOCC1	-33
53	Cc1cccc(-c2nc(CCNC(=O)COc3ccccc3)cs2)c1	i
54	COc1ccc(Cc2c(Cl)ncnc2Cl)cc1	2
55	Cc1c(-c2cccc(CN3CCOCC3)c2)c(=O)[nH]c2ccccc12	-22
56	Cc1ccc2oc(C(=O)N(C)C(C)c3nccs3)cc2c1 (stereo not given)	478
57	CC(C)N1CCO[C@H]2CN(C(=O)c3ccsc3)C[C@@H]21	43
58	Cc1ccccc1SCC(=O)N1CCCC2(CN(C)C(=O)O2)C1 (stereo not given)	0
59	O=C(CCC1CCCCC1)Nc1ncn[nH]1	-2
60	Cc1nc(CN2CCOCC3(CN(CCO)CCO3)C2)cs1 (stereo not given)	1
61	O=C(CC(F)(F)F)N1C[C@H]2[C@@H](c3ccccc31)[C@H](CO)N2C(=O)C1CCCCC1	4
62	COc1ccc(OC)c(S(=O)(=O)NCc2nc(-c3ccc(C)cc3)oc2C)c1	-87*
63	Cc1oc(-c2cccc(Cl)c2)nc1Cn1nnc(-c2nc(-c3ccccn3)no2)c1C	61
64	CCn1nc(C)cc1-c1nnc(-c2ccc(C)cc2)o1	291
65	COc1cccc2[nH]c(C(=O)N3CCCC(c4cc(CN(C)C)n(C)n4)C3)cc12 (stereo not given)	6
66	CC(C)N(C)[C@@H]1c2ccccc2[C@H]2CN(C(=O)c3ccsc3)C[C@H]21	10
67	COc1ccc(-c2cc(C3CNC3)nc(C)n2)cc1	-77*
68	CNS(=O)(=O)c1ccc(-c2nccn2C(C)c2nncn2C)cc1 (stereo not given)	0
69	CCCC(NC(=O)c1cnc(N2CCOCC2)nc1)c1cccs1 (stereo not given)	100
70	C/C=C/c1ccc([C@H]2[C@@H](CO)N(C(=O)Nc3ccccc3F)[C@H]2C#N)cc1	2
71	CCn1c(C2CCCN(C(=O)c3cc(C)n4nc(C)cc4n3)C2)nn(C)c1=O (stereo not given)	-13
72	CC(C)CC#Cc1ccc([C@@H]2[C@H]3CN(C(=O)c4cccc(F)c4)CC(=O)N3[C@H]2CO)cc1	-6
73	O=C(C1CCOCC1)N1CC(=O)N2[C@@H](CO)[C@H](c3ccc(C#CC4CCCCC4)cc3)[C@@H]2C1	-21
74	CN1C[C@@H]2CC[C@H](CC1=O)N2C(=O)c1nc2ccccc2[nH]c1=O	-1
75	CNC(=O)[C@@H]1C[C@@H](N)CN1C(=O)c1ccc2c(c1)c1ccccc1n2C	-43

Entries 73 to 75 of the list above:
item	SMILES	Tgondii IFNg
73	O=C(C1CCOCC1)N1CC(=O)N2[C@@H](CO)[C@H](c3ccc(C#CC4CCCCC4)cc3)[C@@H]2C1	-21
74	CN1C[C@@H]2CC[C@H](CC1=O)N2C(=O)c1nc2ccccc2[nH]c1=O	-1
75	CNC(=O)[C@@H]1C[C@@H](N)CN1C(=O)c1ccc2c(c1)c1ccccc1n2C	-43

Entries by screen from the entries so far.
Tgondii IFNg for entries 69–74, in order: 100, 2, -13, -6, -21, -1

Additional structures follow.
item	SMILES	Tgondii IFNg
76	O=C1CCCC(=O)C1=Cc1c[nH]c2ccccc12	15
77	OC1(c2cccc(C(F)(F)F)c2)CCN(c2ccc(-c3ccccc3)nn2)CC1	69
78	N#Cc1ccc(-c2ccc([C@H]3[C@H]4CNCC(=O)N4[C@H]3CO)cc2)cc1	-12
79	CC1Cc2ccccc2N1C(=O)c1cc2cccnc2n(Cc2ccccc2F)c1=O (stereo not given)	36
80	CC1Cc2cc(CC(=O)N3C4CCC3CC(O)(c3ccc5c(c3)OCO5)C4)ccc2O1 (stereo not given)	-60
81	CCC(=O)N1C[C@@H]2c3nc(Nc4ccccc4)ncc3CS(=O)(=O)[C@H]2C1	-1
82	CCS(=O)(=O)Nc1ccc2c(c1)C(=O)N(C)[C@@H]1CC[C@@H](CC(=O)NCc3ccccc3F)O[C@@H]1CO2	6
83	O=C(Cn1c(=O)cc(-c2nc(C3CC3)no2)c2ccccc21)NCc1cccs1	13
84	CCN1CCCC1CNC(=O)C1CCN(Cc2cc3ccccc3n2Cc2cccc(C)c2)CC1 (stereo not given)	-25
85	CN(CCCc1cnn(C)c1)c1nc(-c2cccnc2)nc2c1cnn2C	-16
86	CCN1CCN(C(=O)c2ccccc2N(C)S(C)(=O)=O)CC1	1
87	CN(CCCc1cnn(C)c1)Cc1ccnc2ccccc12	2
88	COC(Cn1cnc2ccc(F)cc2c1=O)c1cccs1 (stereo not given)	-9
89	CCN1c2cc(C)ccc2-n2cccc2C12CCNCC2	-57
90	CCOC(=O)c1c(O)c2c([nH]c1=O)CCCC2	12
91	O=C(NCc1ccc(F)cc1F)c1cc(-c2cnc(N3CCCC3)nc2)cn1CC1CC1	-103*
92	O=C(c1cc(F)cc(F)c1)N1CCC2(CC1)COCCN(Cc1ccncc1)C2	-15
93	CN1CC2(CCCN(c3nccc(C(F)(F)F)n3)CC2)OC1=O (stereo not given)	-18
94	Cc1nc(-c2ccccc2)sc1CCNC(=O)c1cccc([N+](=O)[O-])c1	i
95	CCOc1ccc(-c2nc3c(s2)CN(S(=O)(=O)c2cccc(Cl)c2C)CC3)cc1	-65
96	CCn1nnc(NC(=O)c2cccc(-c3cc4ccccc4oc3=O)c2)n1	48
97	c1cncc(OCc2nnn3c2CNCCC3)c1	-4
98	Clc1cccc2c3c([nH]c12)CCN(Cc1cc2n(n1)CCNC2)C3	-47
99	Cc1ccc(/C=C/C(=O)N2CCC(c3nc(C(=O)N4CCOCC4)c(C)o3)CC2)cc1	120
100	Cc1cc(C)c2nc(Cl)c(CN(Cc3ccco3)C(=O)NC3CCCCC3)cc2c1	10

item	SMILES	Tgondii IFNg
101	Cc1oc(-c2ccc(NC(=O)C3CCC3)cc2)nc1Cn1cccn1	-25
102	CN(C)CC(=O)N1CC2(CCN(c3nccs3)C2)C1	-4
103	Cc1ccc(Oc2ncccc2NS(=O)(=O)c2cn(C)c(C)n2)c2c1CCC2	40
104	CC(C)NS(=O)(=O)c1cc(C(=O)O)cc(-c2ccc(N3CCOCC3)cc2)c1	192
105	COc1cc2c(cc1C1CC(=O)Nc3[nH]ncc31)OCCCO2 (stereo not given)	-6
106	Cn1cc(CN2CCC[C@H]3CN(S(C)(=O)=O)C[C@H]32)cn1	-17
107	O=C(CCC(=O)N1CCCC(O)(CO)C1)c1ccccc1 (stereo not given)	-1
108	Cc1nonc1C1CCCN1C(=O)c1cccc(C#CC(C)(C)O)c1 (stereo not given)	1
109	O=S(=O)(Cc1ccccc1)N1CCCC1c1ccccn1 (stereo not given)	5
110	N#C/C(=C/c1ccc(O)c(O)c1)C(=O)NCCCCc1ccccc1	3
111	COc1ccc(Cc2nnc3sc(Cc4ccccc4)nn23)cc1	30
112	O=C(N[C@@H]1C=C[C@H](CC(=O)N2CCN(c3ccccc3)CC2)O[C@H]1CO)c1ccccc1	-24
113	N#Cc1cccc(-c2ccc(C3[C@H]4CNC[C@@H]3N4S(=O)(=O)c3ccc(F)cc3)cc2)c1 (stereo not given in full)	8&15
114	O=C(N1CCCCC1)C1(c2ccccc2)CCOCC1	0
115	Cc1ccc2c(c1C)-n1cccc1C1(CCN(C(=O)c3ccccc3)CC1)N2	29
116	C=CC[C@@H]1CC=C[C@@H](C)N1C(=O)Cc1c(C)nc(C)[nH]c1=O	-1
117	Cc1ccc(CN2CCC3(COCc4cnc(NCc5ccco5)nc43)C2)cc1 (stereo not given)	-28
118	CCOc1ccc(-c2nc(CSc3nc4ccccc4c(=O)[nH]3)c(C)o2)cc1	2
119	Cc1noc(-c2cc(=O)n(CC(=O)Nc3cc(F)ccc3C)c3ccccc23)n1	0
120	CCS(=O)(=O)N1CCO[C@H]2[C@@H](OCc3cccnc3)CC[C@H]21	6
121	O=C1CC[C@@H](NCc2ccc(Sc3ncccn3)o2)[C@H](c2cc(F)cc(F)c2)N1	78
